Screening data: PubChem, several laboratories
Autofluor counter: compound fluorescence in toxin protease inhibitor counterscreen; 360,000 compounds, 3.1% hits; fluorescence intensity (concentration not given with the values); compound autofluorescence counterscreen, microsphere flow cytometry; hits give high values;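 active = at least 3 SD above the mean of all compounds, about 16000 in these data; inconclusive = too few beads counted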;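 note: 100 nL of 1 mM stock went into each well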
Sa ugtP lethal: growth inhibition of S. aureus ugtP deletion strain | growth inhibition, % (test concentration not listed) | S. aureus RN4220 ugtP deletion, OD600 growth, 16 h; some inactives read as strong as hits | AID 1259309 | 330,000 compounds, 0.54% hits;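 active = z-score under -3 and OD600 up to 0.15 on both plates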;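 note: plate controls were untreated wells for no effect and antibiotic for full effect; wells of about 80 µL received 100 nL stock; the first replicate is given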
Mtb hypoxia inh: reduces hypoxia-regulated biosensor signal in M. tuberculosis. fluorescence inhibition, % (no concentration beside the values). 300,000 compounds, 0.1% hits. M. tuberculosis hypoxia-regulated fluorescent reporter, fluorescence. AID 1159583;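 active = 35 to 45% if threefold the growth effect, above 45% if 1.5-fold the growth effect; inactive = the rest, general growth blockers included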;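 note: wells of about 50 µL received 100 nL stock; 0% = vehicle wells and 100% = reference inhibitor wells; whole bacteria with a GFP reporter of the hypoxia response; strong numbers were not always called active; many hits fall short of the cut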
PrP UTR inh: suppresses PrP 5' UTR mRNA reporter expression. AID 488862. cell-based PrP 5' UTR mRNA reporter, plate reader. 340,000 compounds, 0.35% hits. inhibition, % (no concentration beside the values);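 active = every replicate at 50% or more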;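 note: 0 = median of the neutral control wells; tested in H4 reporter cells; numbers are from one replicate; inactives centre near -14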
Sa RN4220 lethal: kills Staphylococcus aureus RN4220. inhibition, % (no concentration beside the values). AID 1259311. S. aureus RN4220 growth, OD600, 16 h. 330,000 compounds, 0.33% hits;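 active = z-score of -3 or lower and OD600 up to 0.18 on both plates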;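 note: plate controls were untreated cells for no effect and reference antibiotic for full effect; stock transfer was 100 nL into about 80 µL; one replicate is shown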
BJeLR lethal: kills HRASV12-expressing BJeLR cells; inhibition, % (no concentration beside the values); 300,000 compounds, 0.17% hits; AID 1554; BJeLR (HRASV12) viability, CellTiter-Glo ATP luminescence, 48 h; reference of the scale not given here;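 active = replicate mean above 50%; inconclusive = above 50% but judged a plate artefact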;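 note: 50 nL library stock added to about 25 µL; numbers are from one replicate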
Mtb hypoxia inh growth: also measured in Mtb hypoxia inh; calls as there; growth inhibition, %; measured here: M. tuberculosis growth (absorbance);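 0% = vehicle and 100% = reference antibiotic; read after six days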
* hit, by the source's call; ? = inconclusive; nt = no result given.

SMILES | Autofluor counter | Sa ugtP lethal | Mtb hypoxia inh | Mtb hypoxia inh growth | PrP UTR inh | Sa RN4220 lethal | BJeLR lethal
Cc1cc(C)n2nc(SCc3ccc(C#N)cc3)nc2n1 | 3396 | 4 | 4 | -2 | -4 | 3.8 | 8
CS(=O)(=O)N1CCCC(C(=O)Nc2ccc(F)cc2F)C1 (stereo not drawn) | 4434 | -1 | 7 | -5 | -14 | 3.7 | 1
CCCN(C(=O)CSc1nnnn1C)C1CCS(=O)(=O)C1 (stereo not drawn) | 4287 | 0 | 0 | 8 | -10 | 5.0 | -1
COc1ccccc1Cn1c(=S)[nH]c2cc(C(=O)N3CCC(C(N)=O)CC3)ccc2c1=O | 4854 | nt | nt | nt | -27 | nt | 6
CCOC(=O)c1csc(NC(=O)CN2CCOCC2)n1 | 2984 | 0 | 10 | -3 | -8 | 2.6 | 4
Cc1ccc(NC(=O)c2ccnc(C(C)(C)C)c2)cc1 | 8860 | -5 | 16 | 19 | -9 | 0.5 | -6
O=C(NC(=S)NCc1ccccc1)C1CC1 | 4796 | nt | nt | nt | -10 | nt | -8
O=C(Nc1ccccc1N1CCOCC1)c1ccc(OCc2cscn2)cc1 | 3477 | -1 | 4 | 6 | -18 | 5.2 | -2
O=C(O)C1C2C=CC(C3CC23)C1C(=O)O (stereo not drawn) | 4356 | -1 | 9 | 7 | -10 | 0.9 | -5
O=C(c1cccc(C(F)(F)F)c1)C1CCCN(Cc2cccc(OCCO)c2)C1 (stereo not drawn) | 3007 | 6 | -1 | 3 | -18 | 0.0 | 0
CC1CCN(S(=O)(=O)c2cnc[nH]2)CC1 | 6008 | 1 | 10 | -1 | -18 | 2.2 | -4
COc1ccc(C)cc1NC(=O)COC(=O)c1ccc2c(c1)OCCO2 | 7771 | 4 | 24 | 48 | -22 | 4.9 | nt
Cc1ccc(S(=O)(=O)Nc2cccc3c2O[C@H](CN(C)C(=O)Nc2cccc4ccccc24)[C@H](C)CN([C@H](C)CO)C3=O)cc1 | 4350 | -13 | 7 | 7 | -18 | -6.6 | nt
COc1ccc(C(=O)NNC(=O)c2ccccc2[N+](=O)[O-])cc1Br | 2427 | 1 | -3 | 0 | -10 | 6.9 | 0
O=C(Nc1nc(-c2ccccn2)cs1)C1CCCC1 | 4164 | 8 | 4 | 9 | -31 | 7.0 | 4
COC(=O)CCC(=O)NS(=O)(=O)c1ccc(N=NN2CCOCC2)cc1 | 4107 | 5 | 12 | 9 | -13 | 1.2 | 9
N#CCCn1cc(C=C(C#N)C#N)c(-c2ccc(-c3ccccc3)cc2)n1 | 2697 | 2 | -1 | 10 | -22 | 0.4 | -3
CN(C)CCOC(=O)NCC12CC3CC(CC(C3)C1)C2 | 4485 | 2 | -4 | 9 | -19 | 2.4 | 8
Cc1cccc(C(=O)N[C@H](C(=O)NCCc2ccc(S(N)(=O)=O)cc2)C(C)C)c1 | 3927 | 8 | 5 | 9 | -21 | 1.2 | -4
COCc1cc(Sc2ccc(OC)cc2)nc(-c2ccccc2)n1 | 4995 | 24 | -6 | 7 | -16 | 2.1 | 7
O=S(=O)(c1ccccc1C(F)(F)F)N1CCN(CC(O)COc2ccccc2F)CC1 (stereo not drawn) | 3577 | 11 | 5 | 1 | -12 | 1.1 | -6
Cc1ccc(N(CC(=O)O)C2SC(=O)NC2=O)cc1 (stereo not drawn) | 3779 | 10 | nt | nt | -5 | 5.6 | 3
O=S(=O)(NCC(c1ccco1)N1CCc2ccccc2C1)c1ccc(F)cc1 (stereo not drawn) | ? | 4 | 4 | 2 | -32 | 9.1 | 5
O=C(NNC(=O)c1ccccc1[N+](=O)[O-])c1cnccn1 | 7816 | 6 | 11 | 3 | -36 | 6.3 | -3
COc1ccccc1N1CCN(S(=O)(=O)c2c(C)[nH]c(C)c2C(=O)N2CCCCC2)CC1 | 5561 | 0 | 5 | 8 | -5 | 1.1 | 1
Additional results.
SMILES | Autofluor counter | Sa ugtP lethal | Mtb hypoxia inh | Mtb hypoxia inh growth | PrP UTR inh | Sa RN4220 lethal | BJeLR lethal
COc1ccc(Cc2nc3ccc(C(=O)N(C)Cc4nccs4)cc3o2)cc1OC | 5464 | 6 | 6 | 3 | -11 | 1.8 | 8
CC1CCN(S(=O)(=O)c2ccc(C(=O)Nc3nnc(-c4ccncc4)o3)cc2)CC1 | 2496 | 16 | -3 | 1 | -27 | 32 | 15
CCOc1ncccc1C(=O)NNC(=O)c1ccc(NS(=O)(=O)c2cccs2)cc1 | 4632 | 5 | 2 | 2 | -3 | 4.1 | 4
c1ccc(-c2ccc(CNC3CC3)cc2)cc1 | 4228 | 1 | 10 | 1 | -22 | 4.4 | -2
Clc1cccc(N/N=C/c2ccc(N3CCOCC3)cc2)c1 | 5362 | nt | nt | nt | -54 | nt | 3
COC(=O)c1ccccc1NC(=S)NC(NC(=O)c1ccco1)C(Cl)(Cl)Cl (stereo not drawn) | 10573 | -49 | -3 | -3 | -2 | 14 | 5
Cc1nc2c(C)c(C)c(C)c(C)c2nc1C | 5669 | 10 | 10 | 2 | nt | 2.6 | -6
O=C(O)c1c(Cl)c(Cl)c(Cl)c(Cl)c1C(=O)N1CCCCCC1 | 4486 | -1 | 4 | -3 | -8 | -2.9 | 6
CCOC(=O)c1oc2ccccc2c1NC(=O)CN1CCN(C)CC1 | 4929 | 12 | 4 | 14 | -38 | 6.7 | -5
O=C(NCC(=O)N1CCN(c2ccccc2O)CC1)c1ccco1 | nt | -9 | -3 | -6 | 1 | -0.5 | -5
Cc1ccc(NC(=O)c2ccc3nc[nH]c3c2)cc1C | 2172 | -6 | 1 | 5 | -103 | 1.7 | -4
Cc1ccccc1N(C(=O)c1ccccn1)C(C(=O)NCc1ccccc1)c1ccncc1 (stereo not drawn) | 2856 | -3 | -3 | -9 | 3 | -0.6 | 3
Cc1nc2ccccc2c2oc(C(=O)NC3CC3)cc12 | 5720 | -1 | -7 | 8 | 15 | 5.1 | 10
Cc1ccc(C(=O)NC(NCC2CCCO2)C(Cl)(Cl)Cl)cc1 (stereo not drawn) | 1915 | 13 | 1 | -5 | 9 | 2.9 | 5
O=C1C2C3C=CC(C4CC34)C2C(=O)N1N=Cc1ccc(-c2ccc(F)cc2[N+](=O)[O-])o1 (stereo not drawn) | nt | 6 | 5 | 9 | nt | 4.0 | nt
O=C1Cc2ccccc2N1c1ccccc1 | 3563 | -3 | 5 | 1 | -13 | 0.6 | 2
COc1ccc(C=CS(=O)(=O)NCc2ccccc2)cc1OC | nt | 4 | 5 | 14 | nt | 5.9 | nt
O=C(NN=Cc1ccc(-c2ccccc2)o1)c1ccccc1O | nt | 6 | 7 | -5 | nt | 2.1 | nt
O=C(/C=N/O)NCCCN1CCCCCC1 | 10214 | nt | nt | nt | -1 | nt | -1
COCCN(C(=O)c1ccccc1)c1nc(-c2ccc(OC)cc2)cs1 | 4103 | 19 | 14 | 17 | -33 | -6.3 | 13
CCc1ccccc1NC(=O)c1ccc(F)c(S(=O)(=O)N2CCC(C(N)=O)CC2)c1 | 11131 | 9 | 0 | 0 | -4 | 2.4 | nt
Cc1cc(C)cc(N(CC(=O)Nc2cccc(C)c2C)S(=O)(=O)c2c(C)[nH]c(=O)[nH]c2=O)c1 | 5408 | -3 | 9 | -1 | -19 | 2.2 | -1
Cc1ccc(C)c(COC(=O)c2cc([N+](=O)[O-])ccc2N2CCOCC2)c1 | ? | 2 | 11 | 0 | -20 | 0.7 | 2
COc1ccc(C)cc1NC(=O)C1CCCCN1S(=O)(=O)c1ccccc1 (stereo not drawn) | 5870 | 9 | 7 | 17 | nt | 0.3 | nt
C[N+]1(CCOC(=O)C2(c3ccccc3)CCCC2)CCCCC1 | 5589 | nt | nt | nt | -30 | nt | 6
Following part
SMILES | Autofluor counter | Sa ugtP lethal | Mtb hypoxia inh | Mtb hypoxia inh growth | PrP UTR inh | Sa RN4220 lethal | BJeLR lethal
COCc1[nH][nH]c(=O)c1C=Nc1ccc(F)cc1F | 4546 | 10 | 2 | 3 | -21 | 4.6 | -3
Cc1nc2n[nH]c(N)c2c2c1COC(C)(C)C2 | 2220 | 11 | nt | nt | 2 | 4.4 | -8
Cn1c(CO)cnc1SCc1ccc([N+](=O)[O-])cc1 | 2411 | -5 | nt | nt | -7 | -1.1 | -3
COc1ccc(Cl)c2sc(N3CCN(C(=O)C4=COCCO4)CC3)nc12 | 4495 | -9 | 2 | -1 | -6 | 4.7 | -2
OCCC1CN(Cc2ccc3cc(Cl)ccc3n2)CCN1Cc1ccsc1 (stereo not drawn) | 4582 | 0 | 5 | 2 | -27 | 6.3 | -3
NC(=O)NC(=O)COC(=O)c1sc2ccccc2c1Cl | 5676 | -1 | 6 | 8 | -23 | 4.7 | -7
CC(=NNC1=N[C@H]2CS(=O)(=O)C[C@H]2S1)c1ccccc1 | nt | 1 | 6 | 0 | nt | 1.4 | nt
COC(=O)C1(CC2CC(c3cccc(Br)c3)=NO2)CCN(C(=O)OC(C)(C)C)CC1 (stereo not drawn) | 2928 | 7 | 11 | 4 | -12 | -9.8 | -14
N#Cc1ccc(OCC(=O)n2cc(C(=O)c3cc(Cl)cc(Cl)c3O)cn2)cc1 | nt | -6 | -12 | -19 | nt | -0.6 | 0
Cc1cc(OCc2ccc(C(=O)n3cccn3)o2)ccc1Cl | 4253 | -9 | -3 | -1 | -20 | -0.4 | -10
COc1cccc(CN2C(=O)Nc3ccccc3C(=O)N2C(C)(C)C)c1 | 5233 | 5 | nt | nt | -8 | 7.4 | 7
CC(=O)c1cc(NC(=O)c2ccccc2)c(=O)oc1C | 3946 | 4 | 2 | -1 | -21 | 1.4 | -9
O=C(NC(=S)Nc1ccccc1O)c1cccnc1 | 3688 | -5 | -14 | 1 | -8 | -1.8 | 2
O=C(COC(=O)c1ccccc1SCC(=O)NC1CCS(=O)(=O)C1)NC1CCS(=O)(=O)C1 (stereo not drawn) | 2484 | -3 | -2 | 6 | -22 | 4.0 | 0
C=CCN(c1ccccc1OC)S(=O)(=O)c1cccc(C(=O)OCC(=O)c2c(N)n(C)c(=O)n(C)c2=O)c1 | nt | -13 | 4 | 3 | -3 | 8.5 | nt
CC(C)(CO)NC(=O)Nc1ccc(Cl)c(Cl)c1 | 3553 | -6 | 8 | 5 | -9 | 1.3 | 1
COc1ccc(C(=O)NC(=O)CSc2n[nH]c(N)n2)cc1 | 4792 | -3 | -14 | 0 | -14 | 3.1 | nt
O=C(CSc1nc(-c2ccco2)cc(C(F)(F)F)n1)Nc1ccc(C(=O)N2CCOCC2)cc1 | 2947 | -14 | 6 | 5 | -9 | -11 | 4
CSc1nsc(SCc2ccc(Cl)cc2)n1 | 8100 | 79 | 6 | 14 | -5 | 3.8 | 47
CCCCc1ccc(C(=O)O)nc1 | 5995 | -6 | -5 | 2 | -45 | 12 | nt
O=C(CCC(=O)c1ccc(Cl)cc1)OCC(=O)c1ccccc1 | 4129 | 2 | -8 | -2 | -14 | -2.7 | 8
CC(=O)N1CCc2c(sc(NC(=O)C3CCCCC3)c2C(N)=O)C1 | 5441 | 6 | 9 | 6 | -11 | 6.9 | -7
COC(=O)c1cc(=O)n(CCc2ccccc2F)c(=Nc2ccc(F)c(Cl)c2)s1 | 6369 | 14 | -2 | 17 | -34 | 7.6 | -12
CCOC(=O)NC(=O)CSc1ccc(S(=O)(=O)N2CCCCC2)cn1 | ? | -4 | -8 | 0 | -17 | 3.6 | nt
Cc1ccc(-c2cccc(C(=O)NCc3ccccc3)n2)c2ccccc12 | 3888 | 5 | 5 | 11 | -17 | -3.8 | -7
COc1ccc(Cl)cc1NC(=O)C1CCCO1 (stereo not drawn) | 4532 | -2 | 11 | 8 | -20 | 3.3 | 1
COCCNC(=S)N(CCc1c(C)[nH]c2ccc(OC)cc12)Cc1ccco1 | 3724 | 4 | 13 | 1 | -12 | 6.2 | -2
